RN4220 kill: S. aureus RN4220 growth inhibition. OD600, 16 h. inhibition, % (no concentration beside the values). 0.33% of 330,000 active. AID 1259311;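 active = z-score of -3 or lower and OD600 up to 0.18 on both plates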;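 also: plate controls were untreated cells for no effect and reference antibiotic for full effect; stock transfer was 100 nL into about 80 µL; one replicate is shown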
BJeLR viability: kills HRASV12-expressing BJeLR cells | BJeLR (HRASV12) viability, CellTiter-Glo ATP luminescence, 48 h; reference of the scale not given here | inhibition, % (concentration not given with the values) | 0.17% of 300,000 active | AID 1554;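 active = replicate mean above 50%; inconclusive = above 50% but judged a plate artefact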;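 also: 50 nL library stock added to about 25 µL; numbers are from one replicate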
Autofluor counter: counter-screen for toxin protease inhibitors: compound fluorescence. compound autofluorescence counterscreen, microsphere flow cytometry; active compounds read high. fluorescence intensity (test concentration not listed). 3.1% of 360,000 active. AID 624483;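 active = at least 3 SD above the mean of all compounds, about 16000 in these data; inconclusive = too few beads counted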;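 also: 100 nL of 1 mM stock went into each well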
Mtb hypoxia inh: reduces hypoxia-regulated biosensor signal in M. tuberculosis; M. tuberculosis hypoxia-regulated fluorescent reporter, fluorescence; fluorescence inhibition, % (no concentration beside the values); 0.1% of 300,000 active; AID 1159583;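 active = 35 to 45% if threefold the growth effect, above 45% if 1.5-fold the growth effect; inactive = the rest, general growth blockers included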;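 also: wells of about 50 µL received 100 nL stock; 0% = vehicle wells and 100% = reference inhibitor wells; whole bacteria with a GFP reporter of the hypoxia response; strong numbers were not always called active; many hits fall short of the cut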
ugtP null kill: compounds lethal to S. aureus RN4220 ugtP deletion mutant | OD600 growth, 16 h; some inactives read as strong as hits | growth inhibition, % (concentration not given with the values) | 0.54% of 330,000 active | AID 1259309;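 active = z-score under -3 and OD600 up to 0.15 on both plates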;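 also: plate controls were untreated wells for no effect and antibiotic for full effect; wells of about 80 µL received 100 nL stock; the first replicate is given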
PrP UTR inh: inhibition of PrP 5' UTR reporter expression | AID 488862 | inhibition, % (concentration not given with the values) | cell-based PrP 5' UTR mRNA reporter, plate reader | 0.35% of 340,000 active;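 active = every replicate at 50% or more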;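 also: 0 = median of the neutral control wells; tested in H4 reporter cells; numbers are from one replicate; inactives centre near -14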
Mtb hypoxia inh growth: also measured in Mtb hypoxia inh; calls as there; growth inhibition, %; measured here: M. tuberculosis growth (absorbance);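 0% = vehicle and 100% = reference antibiotic; read after six days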
The depositor's hits bear a star; ? = inconclusive; . = not tested or not shown. Rows were taken by chance (roughly 4% active in at least one column).

The opening 2 entries as a preview:
SMILES	RN4220 kill	BJeLR viability	Autofluor counter	Mtb hypoxia inh	Mtb hypoxia inh growth	ugtP null kill	PrP UTR inh
CCN1C(=O)C(CC(=O)NC2CCCCC2)N(CC)C1=O (centres undefined)	3.8	10.9	3377	5.4	6.0	7.9	-10.5
Cc1c(C(=O)O)cccc1-n1c(C)cc(/C=N/NC(=O)c2cc3ccccc3o2)c1C	.	-2.3	2458	.	.	.	-23.7

Main list, previewed entries included:
SMILES	RN4220 kill	BJeLR viability	Autofluor counter	Mtb hypoxia inh	Mtb hypoxia inh growth	ugtP null kill	PrP UTR inh
CCN1C(=O)C(CC(=O)NC2CCCCC2)N(CC)C1=O (centres undefined)	3.8	10.9	3377	5.4	6.0	7.9	-10.5
Cc1c(C(=O)O)cccc1-n1c(C)cc(/C=N/NC(=O)c2cc3ccccc3o2)c1C	.	-2.3	2458	.	.	.	-23.7
Cn1cnnc1Sc1cc(N2CCN(S(=O)(=O)c3ccccc3)CC2)ccc1[N+](=O)[O-]	-2.8	0.8	2524	5.7	6.9	11.6	-10.3
COc1ccc(CC(C)=NNc2nc(C)cc(=O)[nH]2)cc1	4.1	.	.	12.3	10.2	3.5	.
CNc1nc(-c2ccccc2)nc(-c2ccc(OC)cc2)c1C#N	-0.5	0.2	4358	-7.3	-1.5	-0.4	-13.7
CN1CCN(C(=O)c2ccccc2NC(=O)COc2ccccc2Cl)CC1	2.5	5.8	4930	5.1	9.8	-0.7	-13.5
CC#CC(=O)N1CCCC(Cc2cccc(OC)c2)(C(=O)OCC)C1 (centres undefined)	3.2	2.5	3658	-2.2	13.4	6.7	-41.9
Cn1c(SCC(=O)c2ccc3c(c2)OCO3)nnc1C1COc2ccccc2O1 (centres undefined)	3.6	9.6	10943	2.0	12.8	-3.8	-10.0
COc1ccc(Cc2nnc(NC(=O)c3ccccc3F)s2)cc1	-4.9	3.8	4286	14.1	1.8	10.5	-17.4
O=C(OCc1nnc(-c2ccccc2)o1)c1cc([N+](=O)[O-])ccc1Cl	-1.2	-0.9	3159	7.7	4.3	-0.4	-17.8
CC(OC(=O)CCCc1nc2ccccc2s1)C(=O)NC(N)=O (centres undefined)	3.1	12.7	4226	-1.1	-2.2	-4.1	-15.2
CCc1ccc(N2CC(C(=O)Nc3nccs3)CC2=O)cc1 (centres undefined)	-3.7	-1.8	2828	.	.	1.8	-9.5
COc1cc(OC)cc(C(=O)NCc2ccc3c(c2)OCO3)c1	3.8	-1.9	3997	15.5	10.4	7.6	-13.5
O=C1c2ccccc2C(=O)C1c1ccnc2ccccc12	7.3	24.9	3357	13.3	16.5	-0.5	57.7*
COc1ccc(-c2c(C)nc3c(-c4ccccn4)cnn3c2N)cc1	-0.5	-3.1	3005	5.7	10.9	10.7	-46.5
O=C(c1ccc2c(c1)ncn2-c1ccc(F)cc1F)N1CCC2(CC1)OCCO2	8.8	-0.7	2536	4.2	-0.2	-3.5	-25.3
COc1ccc(-c2ccc3c(N)c(C(=O)c4ccc(OC)c(OC)c4)sc3n2)cc1	5.9	1.2	11178	6.1	4.3	-6.9	10.3
CN1N=C(C(C)(C)C)CSC1=Nc1ccccc1	3.9	1.6	3880	17.7	2.0	9.4	-17.3
O=C(N/N=C/c1cccs1)c1cccc(S(=O)(=O)Nc2ccc(Cl)cc2)c1	.	-3.4	2660	.	.	.	-26.9
Cc1ccc(CN2Cc3cccc4c3C(CC2=O)C(O)C(O)C4)cc1 (centres undefined)	6.1	.	.	3.4	7.6	7.4	.

Some values from the results shown:
For BJeLR viability, Cc1c(C(=O)O)cccc1-n1c(C)cc(/C=N/NC(=O)c2cc3ccccc3o2)c1C shows -2.3
For Mtb hypoxia inh, COc1ccc(CC(C)=NNc2nc(C)cc(=O)[nH]2)cc1 shows 12.3
For Mtb hypoxia inh growth, CNc1nc(-c2ccccc2)nc(-c2ccc(OC)cc2)c1C#N shows -1.5

New compounds follow
SMILES	RN4220 kill	BJeLR viability	Autofluor counter	Mtb hypoxia inh	Mtb hypoxia inh growth	ugtP null kill	PrP UTR inh
COc1cc(/C=N/Nc2nc(Nc3ccccc3)nc(N3CCOCC3)n2)ccc1OC(=O)c1ccco1	.	-4.8	2202	.	.	.	-10.0
COc1ccc(CC(=O)Nc2ccc(F)c(F)c2F)cc1S(=O)(=O)N1CCOCC1	4.9	.	3733	18.1	7.5	2.3	-0.7
Cc1c(OCC(=O)N2CCC(C(=O)O)CC2)ccc2c3c(c(=O)oc12)CCC3	-0.3	-0.5	5325	.	.	-11.1	-37.0
OCCNC(=S)Nc1cccc(Cl)c1Cl	0.1	1.4	.	0.8	-6.4	2.3	-1.1
COc1cc(/C=C2\SC(=S)N(CCC(=O)N3CCCCC3)C2=O)cc(OC)c1OC	3.9	0.2	5345	.	.	1.8	-12.2
Cc1csc(NC(=O)Nc2ccc(Cl)cc2)n1	0.7	-2.2	9756	5.8	-1.6	-2.8	-48.9
N#Cc1ccc(C(=O)NC2CCCCCCC2)cc1	-1.5	-3.6	5608	.	.	-2.9	-46.4
Cc1noc(C)c1NC(=O)Nc1cccc2c1OC(CN(C)S(C)(=O)=O)C(C)CN(C(C)CO)C2=O (centres undefined)	1.9	.	.	10.6	10.3	1.1	.
O=C1CCC(=O)N1CNc1cccnc1	3.4	0.0	3827	1.3	1.3	11.1	-5.5
COc1cccc(OC)c1C(=O)Nn1c(-c2cccc(C)c2)nc2ccccc2c1=O	8.9	9.1	2083	-0.7	2.1	0.9	-19.4
CC(N=C1CC(C)(C)CC(=O)/C1=C(/O)CCCN1C(=O)c2ccccc2C1=O)C(=O)O (centres undefined)	.	-6.6	4733	.	.	.	-17.3
CCc1ccc(NC(=S)N(CCC(C)C)C2CCN(C(C)=O)CC2)cc1	2.1	9.2	3507	-6.2	4.7	7.8	-10.7
O=C(COc1ccccc1)Nc1cc(Cl)ccc1Cl	-0.2	-0.8	4380	-3.6	-5.5	2.9	-64.5
O=C1c2cccc3c([N+](=O)[O-])ccc(c23)C(=O)N1c1nccs1	8.4	1.2	23502*	-11.4	4.5	6.2	-9.1
CCOC(=O)c1c(N)sc2c(O)c(Br)ccc12	3.9	-12.5	20732*	8.2	2.8	-12.4	-42.0
Cc1ccc(Nc2nnc(SCC(=O)NC3CC3)s2)cc1	4.2	.	3612	12.5	8.1	1.4	-17.5
CN(C(=O)COC(=O)c1ccccc1SCC(=O)N1CCCC1)C1(C#N)CCCCC1	6.9	.	4063	14.1	8.1	2.8	-11.4
Cc1ccc(CNC(=O)c2ccc(N3CCC4(CC3)CC(c3cccc(Br)c3)=NO4)c(NC(=O)c3c(Cl)cccc3Cl)c2)cc1	3.3	.	4171	0.2	7.6	1.8	-17.0
Cc1ccc(-c2cc(C(=O)NN=C/C=C/c3ccccc3)n[nH]2)s1	12.8	.	.	17.9	9.5	-6.9	.
CCOC(=O)CNc1c(-c2ccc(F)cc2)nc2cnccn12	-2.1	9.3	3610	18.7	10.7	-3.7	-11.5
Cc1ccc(S(=O)(=O)c2nnn3c2nc(N2CCCCC2)c2ccccc23)cc1	0.8	3.5	2120	11.6	6.7	-5.4	0.1
CC(=O)Nc1ccc(C(=O)N2CCCc3ccccc32)cc1	8.6	-3.0	3117	5.2	-2.0	8.9	-27.5
Cc1ccc(C(=O)C(C)Oc2ccc3ccc(=O)oc3c2)cc1 (centres undefined)	3.2	-9.6	?	6.0	-4.4	-2.0	-5.8
COc1ccc(CCN2CC(C(=O)N(C)Cc3ccc(C)o3)CCC2=O)cc1 (centres undefined)	1.8	-14.7	4174	2.6	-0.8	5.8	-32.0
Cc1cc(Nc2nc3c(c(=O)n(C)c(=O)n3C)n2C)n(-c2ccc(Cl)cc2)n1	2.2	-2.9	2808	.	.	-2.9	-9.3
CCOC(=O)C1CCN(C(=O)c2ccc(S(=O)(=O)Nc3ccccc3OC)cc2)CC1	7.7	.	3678	6.5	4.4	3.3	-4.5
CNc1nc(-c2ccccc2)nnc1C(F)(F)F	-0.1	1.2	22123*	5.1	-5.0	0.0	-30.7
COC(=O)c1ccc(NC(=S)NCC2CC2)cc1	0.8	3.2	2986	11.9	16.6	-2.6	-15.4
c1ccc(N2CCN(c3nc4ccccc4n4nnnc34)CC2)cc1	5.2	-0.5	3032	.	.	0.7	-37.4
Cc1ccc(NC(=O)C2C3C=CC4(CN(Cc5cccnc5)C(=O)C24)O3)cc1 (centres undefined)	1.9	7.4	6154	.	.	1.7	-43.5
O=C(NNS(=O)(=O)c1ccccc1)C1CCN(S(=O)(=O)c2ccc(Cl)cc2)CC1	7.5	23.0	8573	16.9	11.1	-3.5	-8.1
O=C(CNc1cc(S(=O)(=O)N2CCCC2)ccc1OCC(F)(F)F)Nc1cccc(C(F)(F)F)c1	-3.6	-4.3	1915	4.8	2.7	-15.5	-22.6
CCOc1ccc(C(=O)NCC2CCCO2)cc1 (centres undefined)	1.0	.	11848	9.2	7.3	4.7	-22.9
Cc1cccc(N(CC(=O)NCc2ccc(F)cc2)C(=O)c2csnn2)c1C	-8.5	-0.3	4358	12.3	-3.9	2.5	-22.9
O=C(CSc1nc(O)c(C2CCCCC2)c(=O)[nH]1)NCC1CCCO1 (centres undefined)	5.0	-0.5	3372	8.9	5.7	9.2	2.2
COc1cccc(/C=N/NC(=O)CNC(=O)c2ccc(S(=O)(=O)N3CCCC3)cc2)c1OC	.	-1.8	2692	.	.	.	-19.9
CCn1c(=NC(=O)CS(=O)(=O)c2ccc(C)cc2)sc2cccc(OC)c21	11.3	8.3	6533	13.2	1.0	-3.7	-21.7
CCOc1ccc(C(C)=O)cc1COC(=O)c1cc([N+](=O)[O-])ccc1N1CCOCC1	2.7	4.7	5789	3.5	12.8	-1.3	7.0
CN(C)CC(Cl)=C(Cl)c1ccccc1	3.7	.	.	5.5	8.6	2.3	.
CC1C(=O)N2CCCc3cc(NC(=O)C4CC4)cc1c32 (centres undefined)	-1.1	7.4	5832	-15.5	-3.0	2.1	-18.0
O=C(c1ccco1)c1coc2c1cc(O)c1ccccc12	7.2	6.3	2690	13.7	5.0	9.7	-41.6
CC1(C)C2CCC1(C)C(Nc1ccccc1)C2 (centres undefined)	0.6	-3.6	5727	11.6	11.7	4.3	-15.0
CC(C)c1cc(C(=O)NN=Cc2ccco2)n[nH]1	5.0	.	.	10.3	6.4	6.7	.
CC(=O)Nc1cccc(NC(=O)Nc2ccc(F)cc2F)c1	-1.1	8.5	2173	4.3	7.3	-7.4	-26.7
N#Cc1c(N=Cc2ccc(O)c([N+](=O)[O-])c2)sc2c1CCCC2	11.2	.	.	15.2	26.3	-4.5	.
Cc1nnc(NC(=O)CSc2nnc(CCc3nc4ccccc4[nH]3)n2C)s1	1.0	1.4	9623	9.3	4.3	1.7	-10.0
O=C1CCC(C(=O)N2CCSCC2)CN1CCc1ccccc1 (centres undefined)	-4.1	-4.5	5073	-0.5	-7.4	-3.7	0.3
CCNC(=O)CC1C(=O)N(c2ccc(OC)cc2)C(=O)N1Cc1ccc(OC)cc1 (centres undefined)	2.4	-2.4	11231	8.1	3.1	4.8	-15.5
CCOc1ccccc1N(CC(=O)Nc1c(C)n(C)n(-c2ccccc2)c1=O)S(=O)(=O)c1ccccc1	2.3	-1.3	2211	16.9	9.2	4.0	-14.7
CC1=NNC(=O)C1CCC(=O)NN=Cc1ccc(C)cc1 (centres undefined)	3.0	.	.	8.7	6.4	1.3	.

Some entries already given with just Mtb hypoxia inh.
molecule,Mtb hypoxia inh
CC1(C)C2CCC1(C)C(Nc1ccccc1)C2 (centres undefined),11.6
CC(C)c1cc(C(=O)NN=Cc2ccco2)n[nH]1,10.3

(cont.)
SMILES	RN4220 kill	BJeLR viability	Autofluor counter	Mtb hypoxia inh	Mtb hypoxia inh growth	ugtP null kill	PrP UTR inh
Cc1[nH]c(-c2ccc(F)cc2)cc1C(=O)N1CCN(c2ccccc2)CC1	-0.4	8.3	4006	0.3	-6.3	-6.0	-14.3
O=C(CN1CCN(C(=O)c2ccccc2F)CC1)Nc1ccc(Br)cc1	-5.0	1.9	2452	.	.	7.4	-23.4
COc1cccc2sc(Nc3nc4ccc(NC(C)=O)cc4s3)nc12	-0.6	44.9	2742	3.1	-3.7	-2.9	-31.0
C/C=C/c1ccc(OCC(O)CN2CCCCCCC2)c(OC)c1 (centres undefined)	-3.7	14.1	4764	7.8	-2.2	1.2	-5.6
CC(=O)Oc1ccc(/C=C2\N=C(C3CCCCC3)OC2=O)cc1	4.4	-39.5	4062	7.8	-4.5	1.0	-5.5
CCCOc1ccc(Br)cc1CSC(=N)N	1.1	-0.5	2556	15.8	17.5	-2.1	-25.4

High-throughput results (PubChem)
